Compound activity deposited in PubChem by several laboratories.
MT1-MMP act inh – MT1-MMP (human) activation inhibition; P50281; HT1080 RFP-PRO-GFP cells, GFP/RFP ratio fluorescence, overnight; percent of plate control window, DMSO zero; GFP/RFP ratio change, % at 20 µM; hit rate 0.061% among 360,000; AID 651647;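 active means GFP/RFP ratio change of at least 30% with cell ATP level not reduced by more than half and red fluorescence within 50% of control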; further: strong numbers were not always called active
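Assay system: RFP-PRO-GFP reporter HT1080 cells; read-out basis: GFP/RFP fluorescence ratio; benchmarks: DMSO wells and RFP-L50D-GFP cells; doses: 20 µM single dose, 1% DMSO; schedule: overnight cell settling, then overnight compound exposure, 37 °C, 5% CO2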
HIV Env fusion – HIV envelope-mediated fusion inhibition; HeLa-JRFL Env/CEM21 cell fusion, luciferase; inhibition, % at 12.3 µM; hit rate 1.1% among 360,000; AID 651610;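 active means mean replicate inhibition score of at least 50 and every replicate individually at or above 50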;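 further: 0% = plate neutral controls and 100% = maraviroc near 300 nM; one replicate is shown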
MT1-MMP act inh RFP – also measured in MT1-MMP act inh; calls as there; RFP signal change, %; measured here: RFP expression control read;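 0 = vehicle wells; hits needed this value within 50% of zero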
* hit, by the source's call; [ ] = dose if it differs, or a comment. A portion of the library. The share of hits here may be higher or lower than overall.

SMILES | MT1-MMP act inh | MT1-MMP act inh RFP | HIV Env fusion
Cc1cccc(C)c1NC(=O)C1C(c2ccc3c(c2)OCO3)=Nc2ccccc2N1C(=O)c1cccc2ccccc12 (stereo not given) | -13 | -8 | -22
CC(C)C[C@H]1CN([C@@H](CC(C)C)CN2CCC[C@H]2CN2C(=O)C(=O)NC[C@@H]2Cc2ccc(O)cc2)C(=O)C(=O)N1CCc1ccccc1 | 0 | 3 | -38
CC(C)C[C@H]1COc2cc(N(C)CCO)ccc2S(=O)(=O)N1 | 5 | 8 | -24
CC1(c2nnnn2-c2ccc3c(c2)OCCO3)CCC(=O)N1Cc1cccc(C(F)(F)F)c1 (stereo not given) | 8 | 6 | 2
CN(C)CCN1CCN(C2CN(Cc3cn(Cc4ccc(Cl)cc4)nn3)S(=O)(=O)C2)CC1 (stereo not given) | 5 | 4 | -30
O=[N+]([O-])c1ccccc1S(=O)c1ccccc1[N+](=O)[O-] | 4 | 1 | 18
O=C1/C(=C/c2ccc(S(=O)(=O)O)cc2S(=O)(=O)O)CCc2ccccc21 | 3 | 0 | -9
CCN(CC)CCn1c2ccccc2c(=O)c2c(O)ccc(O)c21 | 5 | -1 | -20
Cc1nc2c(nc1C)C(=O)c1ccccc1C2=O | 6 | -2 | 11
COC(=O)c1ccc(NCc2cc(O)ccc2O)cc1O | -48 | -24 | -8
COC(=O)c1ccc2nc(-c3ccc(C)cc3)c(Cc3ccc(OC)cc3C)n2c1 | 0 | -3 | 6
Nc1[nH]c(C(=O)c2ccccc2)c(-c2ccccc2Br)c1C(=O)NCc1ccc(-c2ccccc2)cc1 | 6 | 0 | -2
Cc1cc2nc(-c3ccccc3)c(CC3CCCCC3)n2c(C)c1Br | 1 | -3 | 11
Cc1ccc(-c2nc3ccc(Cl)cn3c2CC(C)(C)C)cc1 | -3 | -4 | 18
c1ccc(CNn2nnc3ccccc32)cc1 | 2 | 1 | -26
CO[C@@H]1CN(C)C(=O)c2ccc(NC(=O)C3CCC3)cc2OC[C@H](C)N(CC2CCCCC2)C[C@H]1C | -3 | -1 | -4[16.7 µM]
COCCNC(=O)c1cc(-c2ccccc2)sc1N | -6 | 6 | -24
COc1ccc(CCc2nc3ccccc3n2C(CCc2ccccc2)c2nc3ccccc3[nH]2)cc1 (stereo not given) | -6 | -6 | -24
COC(=O)C1=CN(c2ccc(Oc3ccccc3)cc2)C(N)=C(C#N)C1c1ccc(-c2ccccc2)cc1 (stereo not given) | 2 | -3 | 15
COC(=O)[C@]12CCCCC=C1N(Cc1ccc3c(c1)OCO3)C(=O)[C@H](CC(=O)NCc1ccccc1)C2 | -2 | -2 | -18
CC(C)NC(=O)C1C(c2ccc(C(F)(F)F)cc2)=Nc2ccccc2N1C(=O)c1ccccc1 (stereo not given) | 5 | -2 | -40
COc1ncnc2c1ncn2CCCNCc1ccccn1 | 3 | 2 | -93
Cc1cc(Br)cn2c(Cc3cccc(Cl)c3)c(-c3ccco3)nc12 | -4 | -9 | 0
COc1cc(C2c3cc4c(cc3OC(NNC(N)=S)C2C)OCO4)cc(OC)c1OC (stereo not given) | 24 | 0 | 12
CCCCCNC(=O)C(c1ccnc2ccccc12)n1c(=O)c(-c2ccccc2)nc2ccccc21 (stereo not given) | -4 | -8 | -23
Nc1ccc2cc3[nH]c4cc(N)ccc4c3nc2c1 | -99 | 3 | 61*
Cc1ccc(S(=O)(=O)c2ccc([N+](=O)[O-])o2)cc1 | 15 | -20 | -198
CSCCC(C(=O)NC1CCCC1)n1c(-c2ccncc2)nc2ccccc21 (stereo not given) | 3 | 2 | 14
COC(=O)[C@]12CCCCC=C1N(CCc1ccc(OC)c(OC)c1)C(=O)[C@H](CC(=O)N1CCOCC1)C2 | -5 | 1 | -6
CC(C)(C)OC(=O)NCCc1onc(-c2cccc([N+](=O)[O-])c2)c1C(=O)O | 8 | 8 | 1

In another format: results already given.
mol,MT1-MMP act inh,MT1-MMP act inh RFP,HIV Env fusion
COC(=O)C1=CN(c2ccc(Oc3ccccc3)cc2)C(N)=C(C#N)C1c1ccc(-c2ccccc2)cc1 (stereo not given),2,-3,15
COC(=O)[C@]12CCCCC=C1N(Cc1ccc3c(c1)OCO3)C(=O)[C@H](CC(=O)NCc1ccccc1)C2,-2,-2,-18
CC(C)NC(=O)C1C(c2ccc(C(F)(F)F)cc2)=Nc2ccccc2N1C(=O)c1ccccc1 (stereo not given),5,-2,-40
COc1ncnc2c1ncn2CCCNCc1ccccn1,3,2,-93
Cc1cc(Br)cn2c(Cc3cccc(Cl)c3)c(-c3ccco3)nc12,-4,-9,0
COc1cc(C2c3cc4c(cc3OC(NNC(N)=S)C2C)OCO4)cc(OC)c1OC (stereo not given),24,0,12
CCCCCNC(=O)C(c1ccnc2ccccc12)n1c(=O)c(-c2ccccc2)nc2ccccc21 (stereo not given),-4,-8,-23
Nc1ccc2cc3[nH]c4cc(N)ccc4c3nc2c1,-99,3,61*
Cc1ccc(S(=O)(=O)c2ccc([N+](=O)[O-])o2)cc1,15,-20,-198
CSCCC(C(=O)NC1CCCC1)n1c(-c2ccncc2)nc2ccccc21 (stereo not given),3,2,14
COC(=O)[C@]12CCCCC=C1N(CCc1ccc(OC)c(OC)c1)C(=O)[C@H](CC(=O)N1CCOCC1)C2,-5,1,-6
CC(C)(C)OC(=O)NCCc1onc(-c2cccc([N+](=O)[O-])c2)c1C(=O)O,8,8,1

The listing continues:
SMILES | MT1-MMP act inh | MT1-MMP act inh RFP | HIV Env fusion
CCOC(=O)[C@]12CCCC=C1N(CCc1ccc(OC)c(OC)c1)C(=O)[C@H](CC(=O)NCCCN1CCCC1=O)C2 | 6 | 9 | 12
CCCCCCCCN1CC(Cc2cc3ccccc3c3ccccc23)N(c2ccccc2)c2ccccc2C1=O (stereo not given) | -2 | -9 | 12
O=C(NCc1ccccc1)C(c1ccccc1F)n1c(=O)c(-c2cc3ccccc3[nH]2)nc2ccccc21 (stereo not given) | -3 | -5 | -7
Cc1cc(NC(=O)CN2C(=O)NC3(CCCCC3)C2=O)ccc1N1CCCC1 | 1 | 1 | -11
O=C(CCSc1nc(-c2ccccc2)c(-c2ccccc2)o1)N1CCCCC1 | 4 | -6 | 16
Cc1cc(Cl)ccc1C(O)c1ncc(-c2ccc(C(F)(F)F)cc2)[nH]1 (stereo not given) | 5 | 4 | 11
CC(=O)N1CCC(C(=O)N2c3ccccc3N=C(c3ccc4c(c3)OCO4)C2C(=O)Nc2c(C)cccc2C)CC1 (stereo not given) | -2 | 4 | -3
CCCCn1nnnc1C1(C)CCC(=O)N1CCc1ccc(OC)c(OC)c1 (stereo not given) | 4 | 2 | 15
Cc1cccc(C)c1NC(=O)C1(C)CSCC(=O)N1CC(F)(F)F (stereo not given) | 2 | 5 | -8
CC[C@@H]1Cc2[nH][nH]c(=O)c2[C@@H](c2ccc(F)cc2)O1 | 3 | 4 | -24
COCCCN1C(=O)C(CC(=O)NCc2cccs2)CC(C(=O)N2CCCCCC2)=C1C (stereo not given) | 3 | 0 | -13
CN(C(=O)Nc1cccc([N+](=O)[O-])c1)c1ccccc1 | 0 | -2 | 5
O=C(O)C1OC1(c1ccccc1Cl)c1ccccc1Cl (stereo not given) | 0 | 6 | -20
CCOc1ccc(C(CN2CCOCC2)C(C)=O)cc1OC (stereo not given) | 0 | -1 | 2
O=C(O)Cn1ccnc1[N+](=O)[O-] | 1 | -1 | -18
CC(C)NC(=O)C1(C)CN(S(C)(=O)=O)CC(=O)N1Cc1ccco1 (stereo not given) | 1 | 5 | -9
CC(C)C[C@H]1CN([C@@H](Cc2ccccc2)CN2CCC[C@H]2CN2C(=O)C(=O)NC[C@@H]2Cc2ccc(O)cc2)C(=O)C(=O)N1CC1CCCCCC1 | -5 | -7 | -16
Cc1ccc(S(=O)(=O)N2CCC(=O)N([C@H](COCc3cccc(C(F)(F)F)c3)C(C)C)CC2)cc1 | -2 | -9 | 46
CCCCCCCCN1C(=O)[C@H](CC(=O)NCc2ccccc2)C[C@@]2(C(=O)OCC)CCCC=C12 | -8 | -15 | 20
O=C(Nc1ccc2c(c1)OCCO2)C(c1ccccc1)n1c(=O)c(-c2cc3ccccc3[nH]2)nc2ccccc21 (stereo not given) | -6 | -3 | -9
Cc1cc(C)n2c(NC3CCCCC3)c(-c3cccnc3)nc2n1 | -4 | 8 | -5
Cc1cn(CC(=O)NCc2nc3ccccc3[nH]2)c(=O)[nH]c1=O | 4 | 8 | 6
Oc1ccc(C=NN=C2c3ccccc3-c3ccccc32)c(O)c1 | -2 | -6 | -10
CC1(C)CN(C2CCCCC2)C(=O)[C@H]1CC(=O)Nc1ccc(Br)cc1 | -3 | -7 | 3
O=C1Nc2ccccc2-n2nnnc2C1N1CCN(c2ccccn2)CC1 (stereo not given) | 0 | 0 | -4
CCc1cc(-c2nnn(CCC3COCCO3)c2CC)cc(CC)c1-c1cn(Cc2ccc3ccccc3c2)nn1 (stereo not given) | -7 | -27 | 42
COC(=O)[C@@]12C[C@@H](CC(=O)NCc3cccc4ccccc34)C(=O)N(Cc3ccccc3)C1=CCC(C)(C)C2 | -10 | -14 | 5
N#Cc1cc2cc(Cl)ccc2[nH]c1=O | 3 | 2 | 8
CC(C(=O)NC(C)(C)C)n1c(-c2ccc3c(c2)OCO3)nc2ccccc21 (stereo not given) | 7 | 5 | -12
O=C(NCCN1CCC(n2c(=O)[nH]c3ccccc32)CC1)C(c1ccccc1)c1ccccc1 | 9 | -16 | 15
O=C(CCCCC(=O)NN=Cc1ccc(Cl)cc1)NN=Cc1ccc(Cl)cc1 | 2 | -2 | -193
Cc1cc(Cl)ccc1NC(=O)/N=C1/NC(=O)CS1 | 0 | 1 | -10
COC(=O)[C@]1(Sc2ccc(C)cc2)CC(=O)N[C@@H]1c1ccccc1 | 6 | 2 | 0
CC(C)CC1OC(C)Cc2[nH][nH]c(=O)c21 (stereo not given) | 7 | 9 | -15
CCOC(=O)[C@]12CCC=C1N(Cc1ccc(Cl)cc1Cl)C(=O)[C@H](CC(=O)N1CCOCC1)C2 | 2 | -3 | 8
Cc1cc(C)c2c(ccc3ccccc32)n1 | 0 | -2 | -288
COc1cccc(-c2cc3nc(C)c(C)c(N4CCN(C(=O)c5ccoc5)CC4)n3n2)c1 | -5 | -5 | 29
Cc1ccccc1CN1C(=O)CSCC1(C)C(=O)NC(C)C (stereo not given) | 6 | 6 | -16
CCN(CC)CCNC(=O)c1nn(-c2ccc(Cl)cc2)c2c1CCc1cc(OC)ccc1-2 | 6 | 3 | 1
CCCCNC(=O)c1c(N)[nH]c(C(=O)c2ccccc2)c1-c1ccccn1 | 1 | 1 | -11
COC(=O)[C@]12CCCCC=C1N(Cc1ccc(Cl)cc1Cl)C(=O)[C@H](CC(=O)N1CCCC1)C2 | -10 | -10 | 24
CN(N=O)c1ccc(C=C2C=Cc3ccccc32)cc1 | 2 | -5 | -323
O=C1CCCCC(=O)[C@H](O)C[C@H](c2ccccc2)O1 | 3 | 8 | -18
CCCCCC(=O)N1C[C@@H](O)[C@H](n2cc(C3CC3)nn2)C[C@@H]1c1ccc(C)cc1 | 1 | -1 | -34
CSC(=Nc1ccccc1)N=C(SCc1ccccc1)N(C)C | -27 | -25 | -103
COc1cc(C=c2c3ccccc3n3c2cc(-c2ccccc2)[n+]3C)cc(OC)c1OC | 58 | 53 | 20
O=C(NS(=O)(=O)c1ccc2ccc(S(=O)(=O)NCCSc3ccccc3)cc2c1)c1cccc2ccccc12 | 5 | 6 | 46
Clc1ccc(C=NN2CCCCCC2)c(Cl)c1 | 0 | 1 | -7
O=C(OCC(O)C1OC(c2ccccc2)OC(COC(=O)c2ccccc2)C1O)c1ccccc1 (stereo not given) | 2 | -1 | -47
COc1c(C)cc(C(O)c2ncc(-c3ccccc3C)[nH]2)cc1C (stereo not given) | 1 | -6 | -16
COc1c(C)cc(C(O)c2ncc(-c3ccc(C(F)(F)F)cc3)[nH]2)cc1C (stereo not given) | 3 | -8 | 2
CCN(CC)CCNc1ccc(C)c2sc3ccc(O)cc3c(=O)c12 | 1 | 3 | -39
COC(=O)[C@]12CCCCC=C1N(Cc1ccccc1)C(=O)[C@H](CC(=O)N1CCCCC1)C2 | -2 | 2 | 8
C#CCNC(=O)C[C@@H]1C[C@@]2(C(=O)OCC)CCC=C2N(Cc2ccc(Cl)cc2Cl)C1=O | 5 | 2 | -5
O=C(NN=Cc1c(O)ccc2ccccc12)c1ccncc1 | -78 | -9 | -37
CCOC(=O)CC1(C)NC(C(=O)O)C(C)(C)S1 (stereo not given) | 3 | 7 | 3
CC(C)CN1C(=O)CSCC1(C)C(=O)Nc1ccc2c(c1)OCCO2 (stereo not given) | 0 | 4 | 1
CC1(C)C2CCC1(C)C(SC(=N)N)C2 (stereo not given) | 3 | 4 | 7
COc1ccc(NC(C)=O)cc1NC(=O)C1CCCN1C(=O)c1cccs1 (stereo not given) | 3 | 1 | 64*
COC(=O)[C@@]12C[C@@H](CC(=O)NCc3cccs3)C(=O)N(Cc3cccc4ccccc34)C1=CCC(C)(C)C2 | -16 | -21 | -11
Cc1ccccc1-c1cc2nc(Oc3ccc4c(c3)OCO4)n(C)c(=O)c2s1 | -2 | -1 | -50
Cc1cc2nc(C3CCCCC3)c(Cc3ccsc3)n2c(C)c1Br | -4 | -8 | 10
CCCCCCCCN1C(=O)[C@H](CC(=O)N2CCN(C(=O)OCC)CC2)C[C@@]2(C(=O)OCC)CCCC=C12 | 0 | -7 | 30

Single records, as listed above. Order of screens: MT1-MMP act inh | MT1-MMP act inh RFP | HIV Env fusion
Shown for COc1ccc(CCc2nc3ccccc3n2C(CCc2ccccc2)c2nc3ccccc3[nH]2)cc1 (stereo not given) = -6 | -6 | -24
Shown for Cc1ccc(S(=O)(=O)c2ccc([N+](=O)[O-])o2)cc1 = 15 | -20 | -198
